Source: PubChem (several laboratories)
Mtb hypoxia inh – Mtb hypoxia fluorescent reporter inhibition | M. tuberculosis hypoxia-regulated fluorescent reporter, fluorescence | fluorescence inhibition, % (concentration not given with the values) | 300,000 compounds, 0.1% hits | AID 1159583;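 active = 35 to 45% if threefold the growth effect, above 45% if 1.5-fold the growth effect; inactive = the rest, general growth blockers included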;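 also: wells of about 50 µL received 100 nL stock; 0% = vehicle wells and 100% = reference inhibitor wells; whole bacteria with a GFP reporter of the hypoxia response; strong numbers were not always called active; many hits fall short of the cut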
Sa RN4220 lethal – S. aureus RN4220 growth inhibition; 330,000 compounds, 0.33% hits; inhibition, % (concentration not given with the values); OD600, 16 h; AID 1259311;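 active = z-score of -3 or lower and OD600 up to 0.18 on both plates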;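 also: plate controls were untreated cells for no effect and reference antibiotic for full effect; stock transfer was 100 nL into about 80 µL; one replicate is shown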
Bead autofluor – flagged as autofluorescent in microsphere protease counterscreen. compound autofluorescence counterscreen, microsphere flow cytometry; active compounds read high. fluorescence intensity (test concentration not listed). 360,000 compounds, 3.1% hits;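 active = at least 3 SD above the mean of all compounds, about 16000 in these data; inconclusive = too few beads counted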;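 also: 100 nL of 1 mM stock went into each well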
PrP 5UTR inh – inhibition of PrP 5' UTR reporter expression; cell-based PrP 5' UTR mRNA reporter, plate reader; inhibition, % (no concentration beside the values); 340,000 compounds, 0.35% hits;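 active = every replicate at 50% or more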;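 also: 0 = median of the neutral control wells; tested in H4 reporter cells; numbers are from one replicate; inactives centre near -14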
ugtP null kill – compounds lethal to S. aureus RN4220 ugtP deletion mutant. growth inhibition, % (concentration not given with the values). AID 1259309. 330,000 compounds, 0.54% hits. OD600 growth, 16 h; some inactives read as strong as hits;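 active = z-score under -3 and OD600 up to 0.15 on both plates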;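 also: plate controls were untreated wells for no effect and antibiotic for full effect; wells of about 80 µL received 100 nL stock; the first replicate is given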
BJeLR lethal – BJeLR cell viability loss | AID 1554 | BJeLR (HRASV12) viability, CellTiter-Glo ATP luminescence, 48 h; reference of the scale not given here | inhibition, % (test concentration not listed) | 300,000 compounds, 0.17% hits;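 active = replicate mean above 50%; inconclusive = above 50% but judged a plate artefact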;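 also: 50 nL library stock added to about 25 µL; numbers are from one replicate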
Mtb hypoxia inh growth – also measured in Mtb hypoxia inh; calls as there; growth inhibition, %; measured here: M. tuberculosis growth (absorbance);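 0% = vehicle and 100% = reference antibiotic; read after six days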
Numbers without * were called inactive; ? = inconclusive; nt = not tested or not shown.

SMILES	Mtb hypoxia inh	Mtb hypoxia inh growth	Sa RN4220 lethal	Bead autofluor	PrP 5UTR inh	ugtP null kill	BJeLR lethal
CC(O)c1cccc(N=Cc2ccc3ccccc3c2O)c1 (stereo unspecified)	8	2	3.6	3851	-6	0	-6
CCN(CC)c1ccc2c(C)c(CO)c(=O)oc2c1	14	7	7.3	5111	-6	0	-5
COc1ccc(-c2cc(C(=O)Nc3ccccc3O)c3ccccc3n2)cc1	10	5	0.7	3545	-5	-6	-2
CCn1c(C)c(C(=O)c2ccccc2)c(C#N)c1C(=O)O	5	3	4.8	3512	-16	3	0
CC(C)(C)c1ccc(OCC(=O)NCCN2CCCC2)cc1	nt	nt	-5.8	3734	-16	3	1
Cc1ccc(-c2ccccc2NC(=O)CCl)o1	nt	nt	0.2	4673	-34	-5	-6
COC(=O)c1[nH]cnc1C(=O)c1ccccc1	6	8	1.2	3204	6	1	8
CN(CCO)C1=CC(=O)CC(C)(C)C1	10	1	0.3	4248	-21	0	0
COc1ccc(C(=O)N/C(=C\c2cc(OC)c(OC)cc2[N+](=O)[O-])C(=O)NCC(=O)O)cc1	-1	6	-3.1	4376	-18	-2	10
COc1ccc(NC(=O)Nc2ccc3c(c2)C(=O)N([C@@H](C)CO)C[C@@H](C)[C@@H](CN(C)S(=O)(=O)c2cn(C)cn2)O3)cc1	-4	6	4.8	3141	-3	13	nt
CC1=CC(=O)N(c2ccn(C)n2)C1=O	11	17	1.3	5356	2	5	0
CCOC(=O)C(=O)NNc1cccc(C)c1C	1	3	3.0	1980	-9	3	-10

Some of these compounds in order of count of non-hydrogen atoms, highest first:
SMILES	Mtb hypoxia inh	Mtb hypoxia inh growth	Sa RN4220 lethal	Bead autofluor	PrP 5UTR inh	ugtP null kill	BJeLR lethal
COc1ccc(NC(=O)Nc2ccc3c(c2)C(=O)N([C@@H](C)CO)C[C@@H](C)[C@@H](CN(C)S(=O)(=O)c2cn(C)cn2)O3)cc1	-4	6	4.8	3141	-3	13	nt
CCN(CC)c1ccc2c(C)c(CO)c(=O)oc2c1	14	7	7.3	5111	-6	0	-5
CCOC(=O)C(=O)NNc1cccc(C)c1C	1	3	3.0	1980	-9	3	-10

Reprinted at random: 6 entries already listed, in no set order.
SMILES	Mtb hypoxia inh	Mtb hypoxia inh growth	Sa RN4220 lethal	Bead autofluor	PrP 5UTR inh	ugtP null kill	BJeLR lethal
COc1ccc(NC(=O)Nc2ccc3c(c2)C(=O)N([C@@H](C)CO)C[C@@H](C)[C@@H](CN(C)S(=O)(=O)c2cn(C)cn2)O3)cc1	-4	6	4.8	3141	-3	13	nt
CCOC(=O)C(=O)NNc1cccc(C)c1C	1	3	3.0	1980	-9	3	-10
COC(=O)c1[nH]cnc1C(=O)c1ccccc1	6	8	1.2	3204	6	1	8
CC1=CC(=O)N(c2ccn(C)n2)C1=O	11	17	1.3	5356	2	5	0
CC(O)c1cccc(N=Cc2ccc3ccccc3c2O)c1 (stereo unspecified)	8	2	3.6	3851	-6	0	-6
CN(CCO)C1=CC(=O)CC(C)(C)C1	10	1	0.3	4248	-21	0	0

(cont.)
SMILES	Mtb hypoxia inh	Mtb hypoxia inh growth	Sa RN4220 lethal	Bead autofluor	PrP 5UTR inh	ugtP null kill	BJeLR lethal
O=S(=O)(NCCN1CCOCC1)c1ccc(-c2ccc(S(=O)(=O)NCCN3CCOCC3)cc2)cc1	2	13	2.2	3375	-15	2	-2
CC1CCCC(NC(=O)C2N(CCCN3CCCC3)C(=O)C3C(C(=O)Nc4ccc(Cl)cc4)C4C=CC32O4)C1C (stereo unspecified)	-1	14	-5.1	4030	-1	23	5
COc1ccc(C(=O)NCCc2ccc(C)cc2)cc1OC1CCN(C(C)=O)CC1	-2	-5	1.4	5955	-22	5	-4
CCOC(=O)C1CCN(C(=O)Nc2ccc(NC(=O)C3CCN(C(=O)OCC)CC3)cc2)CC1	-6	-7	1.7	6394	0	0	-7
CN(c1ccccc1)S(=O)(=O)c1cccc(NC(=O)CN2C(=O)NC3(CCCC3)C2=O)c1	2	0	5.9	?	-1	10	nt
CC(/C=N/NC(=O)c1cccs1)=C\c1ccco1	nt	nt	nt	4223	-53	nt	-1
C=CCn1c(O)c(C(CC)=Nc2cccc(C(=O)O)c2)c(=O)[nH]c1=O	-1	-8	4.6	4513	-8	-6	0
Cc1ccn2c(=O)c(C(=O)O)cnc2c1	9	2	3.6	5803	-8	13	-5
Cc1cccc(NC2=NCC(=O)N2Cc2cccs2)c1	-4	2	-1.4	2002	6	11	-7
C#CCOc1c(Br)cc(/C=N/O)cc1OCC	nt	nt	nt	2472	-19	nt	3
O=C(O)c1ccc(NCc2ccncc2)cc1	7	8	2.4	10699	-12	-1	8
N#CC1=C(N)N(c2ccccc2C#N)C2=C(C(=O)CCC2)C1c1ccsc1 (stereo unspecified)	3	0	6.2	5196	-13	5	-5
O=C(COC(=O)CNC(=O)c1ccccc1)Nc1nnc(-c2ccccc2)o1	2	11	4.5	6409	3	1	-3
CCCOC(=O)c1ccc(NC(=O)CSC2=Nc3ccccc3C3CC=NN23)cc1 (stereo unspecified)	8	6	-3.2	9615	0	18	-10
O=[N+]([O-])c1ccc(/C=N/n2c(C3CCCCC3)n[nH]c2=S)cc1	nt	nt	nt	22651*	-6	nt	9
CC(NC(=O)c1ccc(CS(=O)(=O)c2cccc(C(F)(F)F)c2)o1)c1ccc2c(c1)OCCO2 (stereo unspecified)	6	6	-1.2	3917	-10	0	-3
CC(C)(C)c1nc(SCC(=O)Nc2nc3c(s2)CCCC3)c2ccccc2n1	-1	-5	-1.9	5676	17	2	28
O=C(Nc1ccn(C2CC(OC(=O)c3ccccc3)C(CO)O2)c(=O)n1)c1ccccc1 (stereo unspecified)	18	16	-18	2931	-25	3	8
CCOc1ccc(S(=O)(=O)N2CCOCC2)c2ccccc12	15	7	1.8	3603	-47	9	0
CCn1cc(CN2CCN(Cc3cccc(OC)c3)C(CCO)C2)c(C)n1 (stereo unspecified)	8	4	2.0	2097	-20	7	1
C(=Nn1cnnc1)c1ccc2c(c1)OCO2	3	2	2.0	nt	nt	2	nt
Cc1ccc(C)c(S(=O)(=O)N2CCN(C(=O)CSC(=S)N3CCCC3)CC2)c1	-4	0	2.4	?	-2	4	-8
Cc1ccc(NC(=O)C2CCN(S(=O)(=O)c3ccc4c(c3)NC(=O)C(C)S4)CC2)c(Cl)c1 (stereo unspecified)	-7	7	-6.2	6405	-13	-14	0
CC(Sc1nnc(N)s1)C(=O)NCc1ccc2c(c1)OCO2 (stereo unspecified)	8	10	-0.8	8622	-10	0	nt
COc1ccc(NC(=O)C2=CCN(S(=O)(=O)c3ccccc3)CC2)cc1OC	9	4	1.2	nt	-21	17	3
COc1ccc(C2CC(c3ccccc3)n3nc(NC(=O)c4cccs4)nc3N2)cc1 (stereo unspecified)	-3	6	-3.4	2301	-3	-17	6
O=C(Cn1cnc2c(nnn2-c2ccc(F)cc2)c1=O)N1CCCC1	3	5	3.3	8027	nt	10	2
CCN(CC)S(=O)(=O)c1cccc(C(=O)NC(C(=O)Nc2nnc(C3CC3)s2)C(C)C)c1 (stereo unspecified)	2	5	3.6	3260	-17	-1	-2
O=C(CN(Cc1ccccc1)S(=O)(=O)c1ccc(Br)cc1)NCc1ccco1	6	14	1.0	23735*	5	1	9
O=C(COC(=O)c1cc([N+](=O)[O-])ccc1NCCO)c1ccc(Cl)cc1	-11	12	0.6	2474	-9	0	2
CCOC(=O)C1=C(COC(=O)C(CC)Oc2ccccc2)NC(=O)NC1C (stereo unspecified)	-2	13	4.2	nt	-2	0	-6
Cc1ccn2c(=O)nc(SCC(=O)Nc3ccc4c(c3)OCCO4)nc2c1	8	-4	2.4	nt	-3	3	-9
Cc1nn2c(-c3ccccc3)ccnc2c1-c1ccccc1	15	5	-2.9	3829	-82	17	16
COc1cc(NC(=O)Cn2ncc3c2-c2ccccc2OC3)cc(OC)c1OC	11	10	-7.6	5452	-22	-5	1
Cc1ccc(S(=O)(=O)N(C)C)cc1NC(=O)COC(=O)Cc1cccs1	10	-3	3.7	5349	-17	1	1
Cc1ccc(NS(=O)(=O)c2ccc(Cl)s2)nc1	-8	-14	2.7	6265	-11	4	13
Cc1nc(CC(=O)NNS(=O)(=O)c2cccc(Cl)c2Cl)cs1	6	8	3.9	2860	-24	6	nt
COc1ccc(NC(=O)C2C3C=CC4(O3)C2C(=O)N(CCCN2CCCC(C)C2)C4C(=O)NC2CCCCC2)cc1 (stereo unspecified)	-6	4	0.6	5589	-13	2	1
COc1ccccc1C(=O)NCCC(=O)Nc1ccc(C)cn1	2	-5	3.7	nt	-31	9	0
CC(C)(C)OC(=O)N1CCN(C(=O)Nc2ccc3c(c2)OCCO3)CC1	8	12	8.6	5325	-39	7	4
CC1=C(C(N)=O)S(=O)(=O)c2ccccc21	15	6	-1.1	3971	-7	-2	1
COc1ccccc1/C=C/c1onc(C)c1S(=O)(=O)N1CCC(C(=O)NC(C)C)CC1	nt	nt	-0.7	5915	-12	12	3
COc1cccc(-c2csc(N3CCN(CC(=O)NNC(=O)c4ccco4)CC3)n2)c1	-1	1	1.8	4447	-25	6	nt
COC(=O)C1=C(C(=O)OC)[C@@H]2N(C)c3ccccc3[C@@]23C[C@@H](C(=O)OC)N(C(=O)c2cccs2)C3=N1	nt	nt	nt	3492	-19	nt	-8
O=C(CN1C(=O)C2C3C=CC(C3)C2C1=O)NC1CCCc2ccccc21 (stereo unspecified)	10	4	1.1	4307	-19	-2	5
COC(=O)[C@@H]1[C@@H](C#N)C2(c3ccccc3-c3ccccc32)N(c2ccc(Cl)cc2)N1C#N	7	13	2.5	4575	-8	33	3
CC(C)Cn1cc(C(=O)N2CCC3(CC2)OCCO3)c2c3ccccc3n(C)c2c1=O	1	-1	0.2	11023	-10	1	1
Nc1cc(Cl)c2nonc2c1[N+](=O)[O-]	40*	24*	49	2114	-22	47	nt
N#Cc1ccccc1COc1cccc2c1CCCC2O (stereo unspecified)	3	-6	5.9	3810	nt	11	8
Cc1ccc(NC(=O)CN(C)C(=O)COC(=O)COc2ccc(C#N)cc2)cc1	-1	-10	1.6	4609	-29	7	20
CN(C(=O)c1ccc(NC(=O)c2ccco2)cc1)c1ccccc1	14	1	4.0	5542	-33	-1	26
CCC(=O)N1N=C(c2ccc(C)o2)CC1c1ccc(N(C)C)cc1 (stereo unspecified)	12	2	1.8	4146	-32	5	5
CC1(C)CC(=O)C=C(Nc2ccccc2)C1	6	18	0.9	5845	-22	0	-7
COC(=O)C1=C(C)OC(N)=C(C#N)C1c1c(C)nn(C)c1C (stereo unspecified)	15	4	5.6	3022	-36	14	-2
C=CCN=Cc1sc2ccc(OCC)cc2c1O	11	4	0.5	nt	nt	11	0
Cc1ccc(NC(=O)CSc2nnc(NC(=O)c3ccco3)s2)cc1	7	0	-2.0	3851	-11	14	-1
O=C1C2C(c3ccc(Cl)cc3)N3C(=O)N(c4cccc(Cl)c4)C(=O)[C@@]3(Cc3ccc(Cl)cc3)C2C(=O)N1C1CCCCC1 (stereo partly specified)	10	10	-1.9	nt	nt	-36	nt
CCC(C)C(=O)Nc1ccc(OC)cc1OC (stereo unspecified)	9	3	4.3	14248	-3	12	2
COC(=O)c1c(-c2ccc(Br)cc2)noc1N	15	10	0.1	6450	-22	2	-1
Cc1cc(NC(=O)CN2C(=O)[C@@H]3[C@H](C2=O)[C@@H]2C[C@H]3C(Br)C2Br)no1 (stereo partly specified)	2	-3	2.6	3503	-4	-5	0

(more compounds)
SMILES	Mtb hypoxia inh	Mtb hypoxia inh growth	Sa RN4220 lethal	Bead autofluor	PrP 5UTR inh	ugtP null kill	BJeLR lethal
COc1ccc(CCC(C)Nc2cccc(C)c2)cc1 (stereo unspecified)	12	18	7.3	9953	-11	43	-4
COc1ccc(S(=O)(=O)N2CCOCC2)cc1NS(=O)(=O)c1ccc(F)c(F)c1	15	9	0.3	6240	-29	4	nt
CC(C)COc1cccc(C(=O)NC(=S)NCc2cccnc2)c1	7	8	5.9	2650	-24	-7	-2
COc1ccc2nc(NC(=O)c3ccc(-n4nc(C)cc4C)cc3)sc2c1	-3	0	13	2466	-32	2	-6
CC(=NN=C(C)c1ccccc1O)c1ccccc1O	1	5	1.5	nt	nt	11	nt
CC1(C)CC(=O)C2=C(C1)Nc1ccccc1NC2c1cc(Cl)ccc1O (stereo unspecified)	3	1	2.4	3746	-53	11	-5
COCCCNC(=O)CSc1nc2sc(C(=O)OC)c(C)c2c(=O)n1N	-7	-7	2.4	4513	-23	6	2
CCC(CC)C(=O)c1c[nH]c(C(=O)O)c1	2	2	4.8	3713	-12	0	nt
CCC(C)OC(=O)C(C)Oc1ccc(-c2ccccc2)cc1 (stereo unspecified)	nt	nt	nt	2649	-27	nt	-15
